# Calb FLC – C. albicans growth modulation with fluconazole; 0.57% of 300,000 active; C. albicans CaCi-2 (fluconazole-resistant clinical isolate) + fluconazole, Alamar Blue growth, 48 h; growth inhibition, % (no concentration beside the values);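 active means most replicates above 75%; inconclusive means exactly half above 75%; inactive means most below 75%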;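 further: all wells also contain fluconazole at 8 µg/ml as a sub-toxic cotreatment; 0% = median of DMSO wells and 100% = median of geldanamycin control wells; wells of about 8 µL received 7.5 nL stock; the first replicate is given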
# LANA-H2B inh – blocks KSHV LANA binding to histone H2A/H2B. Q9QR71. cell-free LANA-H2A/H2B peptide, fluorescence polarization. inhibition, % (test concentration not listed). 0.6% of 320,000 active. AID 2629; in the data active means inhibition mostly above about 10%, no sharp cut-off; inactive means mostly below about 6.7%;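 further: stock transfer was 7.5 nL into about 10 µL; 0% = median of vehicle wells and 100% = median of positive control wells; one replicate is shown; the record names a cut of 25% in any replicate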
# Bfl-1 A1 inh – inhibitors of the anti-apoptotic protein A1, read as caspase activation; MEF A1-2A-BIM cells, Caspase-Glo 3/7 luminescence, 3 h; percent of clofoctol response, vehicle zero; caspase activation, % (no concentration beside the values); 0.066% of 330,000 active;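 active means over half of replicate activation scores above 10%, or exactly half above 10 with the replicate mean above 10; inconclusive means replicate mean below 10 yet half the replicates above 10; inactive means over half of replicates below 10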;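 further: wells of about 30 µL received 50 nL stock; many hits fall short of the cut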
# AF4-AF9 inh – inhibitors of human MLL-AF4/AF9 interaction; P42568; AlphaScreen, biotin-AF4 peptide binding to FLAG-AF9; inhibition, % at 10 µM; 0.47% of 350,000 active; AID 651704;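 active means every replicate reaching a set inhibition limit, whatever the replicate mean, cut at about 25% in these data; inconclusive means mean inhibition reaches that limit but some replicates miss it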;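 further: 0% = plate neutral control median and 100% = total signal loss; the record names both 10 and 1 µM as test concentration; the first replicate is given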
# Target sequence (P42568 whole entry, looked up): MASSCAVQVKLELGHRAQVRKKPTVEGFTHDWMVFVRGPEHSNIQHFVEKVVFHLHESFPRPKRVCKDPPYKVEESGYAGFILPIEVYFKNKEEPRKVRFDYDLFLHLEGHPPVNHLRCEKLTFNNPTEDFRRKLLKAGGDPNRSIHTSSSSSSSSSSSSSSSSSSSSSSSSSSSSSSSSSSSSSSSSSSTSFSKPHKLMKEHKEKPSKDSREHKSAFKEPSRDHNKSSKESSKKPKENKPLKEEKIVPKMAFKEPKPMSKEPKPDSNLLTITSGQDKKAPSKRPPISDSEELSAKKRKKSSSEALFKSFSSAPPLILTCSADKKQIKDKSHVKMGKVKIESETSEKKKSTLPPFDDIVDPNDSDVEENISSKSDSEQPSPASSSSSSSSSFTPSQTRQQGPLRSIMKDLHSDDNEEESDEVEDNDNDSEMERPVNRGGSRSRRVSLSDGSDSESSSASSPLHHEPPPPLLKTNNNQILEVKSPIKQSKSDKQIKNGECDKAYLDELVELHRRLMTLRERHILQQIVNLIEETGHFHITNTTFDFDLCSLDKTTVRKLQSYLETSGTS
# T cruzi repl – blocks replication of Trypanosoma cruzi | inhibition, % (test concentration not listed) | 1.4% of 300,000 active | T. cruzi beta-gal in NIH3T3, luminescence, 90 h;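 active means mean inhibition across valid replicates above about 55%, limit read from the data; inconclusive means mean below that limit but half or more replicates reach it; inactive means mean below it, under half of replicates reach it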;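 further: signal also drops with host cell toxicity which is not excluded here; 0% = plate median of DMSO wells and 100% = zero luminescence signal; higher percent means less beta-gal luminescence so fewer parasites; stock transfer was 50 nL into about 50 µL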
# Beta cell apopt – blocks beta cell apoptosis; protection from apoptosis, % (no concentration beside the values); 0.8% of 300,000 active; INS-1E cytokine-induced death, ATP luminescence, 48 h; percent of positive-control rescue, neutral wells zero;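 active means all replicates at 75% or more, or half of them and the mean; inconclusive means half reach 75% but not the mean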;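 further: 0% = cytokine-treated negative control wells and 100% = positive control rescue; higher means more ATP so stronger rescue from cytokine killing; wells of about 40 µL received 100 nL stock; the first replicate is given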
# Vif A3G – inhibitors of Vif binding to APOBEC3G peptide, primary screen, biochemical, TR-FRET, GST-Vif 1-94, biotin-A3G peptide, dose response retest (AID 1117319); 0.57% of 260,000 active; one-dose inhibition, %; IC50 in µM for titrated hits; TR-FRET GST-Vif / biotin-A3G peptide binding; higher % means a stronger effect; test concentration not given here; strong numbers were not always called active;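 active means above the screen mean plus three standard deviations and confirmed in dose response; inconclusive means results disagree or hit not tested in dose response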;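 further: Vif residues 1-94 fused to GST binding biotinylated APOBEC3G peptide 110-148; 0% = full assay without inhibitor and 100% = GST in place of GST-Vif; retest series ran down from 100 µM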
# RanGTP-Impb inh – disruptors of Ran-importin-beta complex formation – biochemical, FRET, CFP-Ran, YFP-importin-beta, homogeneous, primary screen. cell-free CFP-Ran/YFP-importin-beta FRET ratio. 1.1% of 300,000 active. inhibition, % (concentration not given with the values);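 active means most replicates above 15%; inconclusive means exactly half above 15%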;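 further: 0% = DMSO wells and 100% = Ran loaded with GDP instead of GTP; wells of about 40 µL received 100 nL stock; the first replicate is given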
# Active calls of the source: *; i = inactive; u = inconclusive; x = no result given; & = joins results of further samples.
SMILES,Calb FLC,LANA-H2B inh,Bfl-1 A1 inh,AF4-AF9 inh,T cruzi repl,Beta cell apopt,Vif A3G,RanGTP-Impb inh
O=C(NCc1ccc(F)cc1)Nc1ccc(Cl)cc1,7,-7.2,-0.1,1.1,-2,-2,x,-3.4
CC(C)(C)c1cc(C(C)(C)C)n(-c2ccccc2)n1,-20,1.0,0.2,x,10,1,7%,-1.7
COc1cc(/C=C(\C#N)C(=O)NCc2ccccc2)ccc1OCc1ccc(C(=O)O)cc1,-8,-1.7,-0.2,-0.5,1,5,-9%,-0.4
CN(CC(=O)N1CCN(Cc2ccccc2)CC1)C(=O)Cc1ccc(Cl)c(Cl)c1,x,1.7,-0.2,-1.6,x,-16,2%,x
CCOC(=O)c1cn(CC(=O)Nc2ccc(CC)cc2)nn1,1,-2.3,-0.5,x,-5,1,-2%,4.2
CC(C)(C)OC(=O)N1CCC(C(=O)N2CCOCC2)CC1,-5,-2.5,0.8,x,-13,-2,-1%,1.2
COc1cccc(CNC(=O)C(CCSC)NS(=O)(=O)c2ccc3c(c2)oc(=O)n3C)c1 (stereo not drawn),-14,x,-0.3,x,1,-3,-7%&0%,-1.7
O=C(NC12CC3CC(CC(C3)C1)C2)N1CCN(c2nc(-c3ccccc3)cs2)CC1,-4,-2.0,0.2,x,21,11,-11%,u
CCCCn1c(N)c(N(CCC(C)C)C(=O)c2ccc([N+](=O)[O-])s2)c(=O)[nH]c1=O,0,3.7,-0.4,-12,64*,1,12%,-3.9
CCc1cccc(NC(=O)CCc2c(C)nn(-c3ccc(N4CCOCC4)nn3)c2C)c1,6,1.8,-0.3,3.7,4,3,x,3.7
CN1C(=O)C2(c3ccccc31)c1c(oc3ccccc3c1=O)C(=O)N2CCCO (stereo not drawn),-7,0.1,0.7,0.3,5,x,-3%,2.2
COc1ccccc1NC(=O)COC(=O)Cc1cccs1,-1,3.9,0.7,-0.6,-1,x,-4%,7.0
Cc1nn(C)cc1/C=N/NC(=O)C1(O)c2ccccc2-c2ccccc21,25,8.0,0.0,4.7,-2,-6,-10%,4.8
CC(C)NC(=O)C1CCN(Cc2cccc(Oc3ccccc3)c2)CC1,-1,-3.8,-0.1,-3.9,29,-6,x,2.4
CCN(C(=O)COC(=O)c1cc([N+](=O)[O-])ccc1N1CCOCC1)c1ccccc1,x,1.8,-0.5,6.8,x,-7,1%,x
O=C(NCc1cccc(F)c1)C1CCN(S(=O)(=O)Cc2ccccc2)CC1,4,0.4,2.3,x,4,-1,68%,0.2
COc1cccc(-c2ccc(SCC(=O)N3CCOCC3)nn2)c1,25,-1.5,-8.9,0.5,-10,-1,x,-1.6
O=C(C1CCCN1S(=O)(=O)c1cccc2nsnc12)N1CCCCCC1 (stereo not drawn),0,8.4,0.5,3.6,4,-3,-4%,6.6
COc1cc(OC)c2c(=O)cc(-c3cccnc3)oc2c1,-3,0.3,-0.2,-2.5,-5,2,1%,1.5
Oc1ccc(/C=N/N2CCN(C3c4ccccc4-c4ccccc43)CC2)cc1O,-3,3.4,29*,-4.4,-13,4,u,2.2
Cc1cc(C)nc(/N=C(\N)Nc2ccc(OCCC(C)C)cc2)n1,-23,1.0,-0.2,-14,42,52,x,u
CC12CCC(C(=O)N3CCCCC3)(CC1=O)C2(C)C (stereo not drawn),-6,2.9,0.7,x,-6,-3,-1%,-1.7
O=C(CSc1ccc(C(F)(F)F)cc1[N+](=O)[O-])Nc1ccc2ccccc2c1,1,-5.4,0.5,0.3,-13,-1,u,-2.6
CCOC(=O)C1=C(C)C(c2ccc(OC)cc2OC)NC(=O)N1 (stereo not drawn),1,-6.5,-0.6,x,-5,-1,8%,-1.5
COC(=O)c1ccccc1SCc1csc(C)n1,0,6.2,-0.4,-0.3,-6,-10,x,-5.1
COc1cc(/C=N/NC(N)=S)ccc1OC(=O)c1ccc(C)cc1,3,-2.0,-0.2,x,15,6,-6%,4.7
COc1ccc(CNC(=O)CSc2nnc(C)n2-c2ccc(F)cc2)cc1,-7,-3.1,0.9,-5.9,-1,-6,4%,2.8
O=C(Nc1sc2c(c1C(=O)O)CCCCC2)c1ccco1,25,2.3,-7.0,x,-44,1,13%,8.0
Cc1cc(C)nc(-n2nc(C)cc2NC(=O)c2ccc(S(=O)(=O)N3CCOCC3)cc2)n1,-17,6.0,0.3,x,16,0,4%,2.3
CNC(=S)N(CCc1c(C)[nH]c2ccccc12)Cc1ccco1,21,5.1,-0.6,6.1,-11,4,x,1.2
CCOC(=O)c1cc2c(ccn2-c2ccc(F)cc2)n1CC(=O)N1CCN(C(=O)c2ccco2)CC1,0,-2.1,-0.4,x,1,-23,-4%,-0.1
O=C(N/C(=C/c1ccc2c(c1)OCO2)C(=O)N1CCOCC1)c1cccs1,-10,1.7,-0.1,x,11,-1,-2%,-2.8
CC1=CC(C)(C)N(C(=O)CN2C(=O)c3ccccc3C2=O)c2ccccc21,-14,-9.0,1.3,7.0,-6,-2,7%,0.0
C[C@@H](O)c1nc2ccccc2n1N,9,-0.4,-0.6,x,-15,-11,4%,3.5
CCOC(=O)c1c(NC(=S)Nc2ccccc2)sc2c1CCN(CCc1ccccc1)C2,x,i,0.8,x,x,3,-5%,x
Fc1ccc(C2=CSC3=NCCN23)cc1,-20,-4.9,0.1,-2.1,6,-9,17%,x
Cc1cc(O)c(C)c(O)c1/C=N/NC(=O)c1cccnc1,-4,1.4,1.1,3.0,6,x,2%,1.4
O=C(CCNC(=O)c1ccccc1Cl)NC1=NCCS1,2,-3.1,-0.6,-0.7,-1,-3,13%,-0.6
N#Cc1ccc(C23CC4(C2)[C@H](CN(P(=O)(c2ccccc2)c2ccccc2)[C@@H]4c2ccccc2)C3c2ccc(Cl)nc2)cc1 (stereo partly drawn),11,-1.2,0.2,x,47,4,x,-3.0
Cc1ccc(-c2cc(C(=O)Nc3cc(C)on3)c3ccccc3n2)cc1,-4,-3.3,0.9,-6.0,8,2,-42%,0.1
O=[N+]([O-])c1cccc(-n2cccc2/C=N/Nc2nc(N3CCCCC3)nc(N3CCCCC3)n2)c1,-6,9.4,1.0,3.5,15,x,9%,-5.6
CCCCOc1ccc(S(=O)(=O)Nc2cc(OC)ccc2OC)cc1,23,2.8,-0.8,x,-32,8,2%,2.7
CCCN(C(=O)c1cc(S(=O)(=O)N(C)c2ccc(OCC)cc2)ccc1C)C1CCS(=O)(=O)C1 (stereo not drawn),x,x,0.8,0.9,x,-10,2%,x
CC(/C=C1\SC(=O)N(CC(=O)Nc2cccc(O)c2)C1=O)=C\c1ccccc1,-12,-4.7,0.1,x,-6,-3,1%,-2.2
Cc1cc(-c2csc(NC(=O)c3ccc(C#N)cc3)n2)c(C)n1Cc1ccccc1,11,2.0,-0.1,-0.2,-17,-4,x,-1.2
CN(CCO)C(=O)c1cccc2c1-c1ccccc1C2=O,-4,-1.5,-0.1,-1.5,-6,0,0%,-0.6
CCCCCn1c(Sc2nc3ccccc3s2)nc2c1c(=O)[nH]c(=O)n2C,5,-1.9,-0.7,-78,38,11,8%,-1.2
CCCCc1cc(=O)oc2c(CN(CC)CC)c(O)c(Cl)cc12,-23,-0.7,-0.4,x,1,3,7%,u
COCCn1c(SCC(=O)NC(=O)NC(C)C)nc2ccccc21,-1,0.8,1.0,x,-12,-8,-1%,-0.5
CN(CC(=O)NCCN1CCN(Cc2ccccc2)CC1)S(=O)(=O)c1cccc2nsnc12,-16,-0.3,0.9,x,39,x,u,-1.2
O=C(O)c1ccc(NC(=O)C2C3CCC(O3)C2C(=O)O)cc1 (stereo not drawn),6,0.6,0.8,0.2,-7,-9,x,1.2
Cc1nc2ccccc2c(=O)n1C1CCCCCC1,5,6.4,0.0,x,-16,-4,0%,2.4
CC(C)Oc1ccc(C(CC(=O)O)Cc2ccccc2)cc1 (stereo not drawn),5,0.2,1.4,-3.2,-13,-2,1%,-0.4
CN1C(=O)C2(C(C#N)=C(N)N(c3cc(Cl)cc(Cl)c3)C3=C2C(=O)CCC3)c2ccccc21 (stereo not drawn),5,0.5,-0.2,x,6,2,6%,3.5
Cc1nc(CCNC(=O)Cc2ccc(Cl)cc2)cs1,-7,3.4,-0.9,-6.1,-3,-5,1%,-3.1
CC(C)CCCNc1nc(N2CCOCC2)nc(N2CCOCC2)n1,0,0.2,0.4,-0.7,5,x,13%,u
O=c1c(-c2ccccc2)nnc2sc(COc3ccc(Br)cc3)nn12,-3,1.8,1.1,2.9,-6,-3,-5%,1.1
CC(C)(C)c1ccc(S(=O)(=O)NCCOCC(F)(F)C(F)F)cc1,-1,1.0,-0.1,1.2,11,2,7%,-0.3
NS(=O)(=O)OCCCc1ccc(C(F)(F)F)cc1,-11,-0.8,1.5,-8.0,-13,-5,x,4.0
O=C(CSc1nc2ccccc2[nH]1)c1ccc(Cl)s1,-1,-1.1,0.4,x,-15,3,24%,-2.6

# Other entries:
SMILES,Calb FLC,LANA-H2B inh,Bfl-1 A1 inh,AF4-AF9 inh,T cruzi repl,Beta cell apopt,Vif A3G,RanGTP-Impb inh
O=C(CSc1nnc(Nc2ccccc2)s1)NCc1ccco1,8,3.7,-1.3,x,5,0,-3%,-0.1
CN1CCC(N(C)CC(=O)Nc2cccc(Oc3ccccc3)c2)CC1,-3,0.8,2.1,x,62*,-4,10%,0.1
CNc1nc2c(c(=O)n(C)c(=O)n2C)n1CCCc1ccccc1,-5,-5.8,-0.4,-1.1,-5,8,-18%,3.5
C=CCN1C(=O)C(O)(CC(=O)c2ccc(Cl)cc2)c2ccccc21 (stereo not drawn),-18,0.5,0.2,x,4,-3,28%,2.3
O=C(/C=C/c1ccc(-c2ccccc2)o1)c1ccccc1,-4,6.2,0.2,x,6,-9,20%,-4.7
CC1CC(C)CN(S(=O)(=O)c2ccc(C(=O)NCCCn3ccnc3)cc2)C1 (stereo not drawn),7,-2.7,-0.2,x,29,114*,2%,3.2
CCC(COC)NC(=O)CCc1nnc(Cc2cccc(C(F)(F)F)c2)o1 (stereo not drawn),9,-1.6,-0.6,-1.4,-4,6,x,4.9
CCN(CC(=O)Nc1ccccc1OC)C(=O)CSCc1ccc(C)cc1,x,-2.7,-0.2,-10,x,1,-7%,x
CN(C)C(CNc1ncnc2sc3c(c12)CCCCC3)c1ccco1 (stereo not drawn),5,2.0,0.2,7.8,5,7,23%,5.0
N#CC1=C(N)Nc2nc3ccccc3n2C1c1ccc(Cl)cc1 (stereo not drawn),7,-1.7,-0.6,x,17,x,-2%,3.8
O=C(NNC(=S)NC1CCCCC1)c1ccccc1O,-1,-2.8,-0.5,-4.9,-30,15,5%,-2.7
C=CCOC(=O)C1=C[C@H](C(C)(C)C)[C@@H](CCCO)[C@H](OCC)O1,-8,-4.5,-0.6,x,-18,-7,x,2.3
CC(=O)c1ccc(N2CCN(CC(=O)Nc3ccc4c(c3)OCCO4)CC2)cc1,-11,2.0,0.2,0.8,16,5,-7%,-1.2
